High-throughput results from PubChem BioAssay.
Calb biofilm kill = mixtures killing C. albicans biofilm. inhibition, % at 7.6 µM. 120,000 compounds, 0.02% hits. AID 1242. C. albicans biofilm persisters + clotrimazole, fluorescence viability; primary screen in compound mixtures of four per well;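 active means inhibition above 30.3% in the primary screen of four-compound pools, then above 30% when the compound was retested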;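 further: compounds exposed to preformed 24 h biofilms for 48 h; the number belongs to the whole pool; some results filed as inactive read as strong as hits; inactives centre near 12; 0% = biofilm with clotrimazole alone and 100% = kill control; retested singly at about 60 µM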
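System: C. albicans CAF4-2 wild-type biofilms; Medium: RPMI/MOPS medium, pH 7.0; Reagent: Clotrimazole, 50 µg/mL; Times: biofilm formation 24 h, compound exposure 48 h, 37 °C; Detection: 2-h Alamar Blue fluorescence, 535/590 nm excitation/emission; Evaluation: percent inhibition of biofilm viability.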
* = called active by the depositor.

Structure	Calb biofilm kill
CC(C)CN(CC(C)C)S(=O)(=O)N1CCC(C(=O)NCc2cccnc2)CC1	3.0
CN(c1ccccc1)S(=O)(=O)c1cccc(NC(=O)CSc2nncs2)c1	19.1
COc1ccc(OC)c(-c2nc3ccccc3nc2-c2ccccc2)c1	5.2
CN(CCc1ccccn1)C(=O)CCC1CCCN(C(=O)CCOc2ccccc2)C1 (configuration not stated)	-9.7
NNC(=O)c1cc(-c2ccccc2)sc1N	11.6
O=C1C2C(C(=O)N1CCN1CCN(Cc3ccc([N+](=O)[O-])cc3)CC1)[C@H]1C=C[C@@H]2C1 (some centres not stated)	20.1
CCN1CCCC1CNC(=O)c1ccc(Sc2ccccc2Cl)c([N+](=O)[O-])c1 (configuration not stated)	11.4
CNC(=O)CCSc1ccc(C)cc1	12.2
Cc1ccc(-c2c[nH]c(=S)n2-c2ccccc2)cc1	11.3
CC(=O)Nc1ccc(S(=O)(=O)Nc2cccc(-c3cn4c(n3)SCC4)c2)cc1	11.6
Cc1ccc(NC(=S)N(CCN(C)C)Cc2cc3cccc(C)c3[nH]c2=O)cc1	20.7
CCOc1nc(NCCN2CCOCC2)nc(Nc2ccc([N+](=O)[O-])cc2)n1	19.7
CC12CN(C(=O)c3ccc([N+](=O)[O-])cc3)CC(C)(CN(C(=O)c3ccc([N+](=O)[O-])cc3)C1)C2=O	21.1
CC/C(C)=N/Nc1ccc(S(=O)(=O)N2CCCC2)cc1[N+](=O)[O-]	10.5
COc1ccc(NC2=CC(c3ccccc3)N(c3ccc(OC)cc3)C2=O)cc1 (configuration not stated)	17.6
Cc1ccc(NC(=O)CCC(=O)N/N=C/c2cc([N+](=O)[O-])ccc2O)cc1	22.2
COC(=O)c1cc(-c2ccc(OC)cc2)on1	-0.8
COc1ccc(CCNC(=O)/C=C\c2ccccc2)cc1OC	14.1
CC(=O)N1C(=O)/C(=C2\SC(=S)N(c3c(C)n(C)n(-c4ccccc4)c3=O)C2=O)c2ccccc21	16.9
Cc1cc(NCC(c2ccccc2)c2ccccc2)n2ncnc2n1	10.4
S=C(Nc1ccccc1)N1CCn2cccc2C1c1cccnc1 (configuration not stated)	10.3
C=CCN(c1ccccc1)S(=O)(=O)c1ccc(Cl)c(C(=O)OCC(=O)NCCCN2CCCC2=O)c1	-1.5
CCN1CCN(Cc2ccc(NC(=O)c3cc(NC(=O)c4nccnc4N)cc(OC)c3)cc2C(F)(F)F)CC1	20.7
COc1ccc2c(c1)O[C@H](c1ccc3c(c1)OCO3)[C@@H](OC(=O)Nc1cc(OC)c(OC)c(OC)c1)C2=O	-3.2
Cc1ccc(C(=O)N/C(=C/c2ccco2)C(=O)NCCc2c[nH]c3ccccc23)cc1	9.7
Cc1cnc(C)c(N(C)NC(=S)Nc2ccccc2)n1	13.0
O=C(/C=C/c1cccc(Br)c1)NCc1ccncc1	17.5
CCOc1ccc(C(=O)N2CCN(c3cccc(Cl)c3)CC2)cc1	11.5
COc1cc(/C=N/NC(=S)N/N=C/c2cc(OC)c(OC)c(OC)c2)cc(OC)c1OC	0.1
NS(=O)(=O)c1ccc(NC(=O)COc2ncnc3sccc23)cc1	8.6
CSc1nnc(CSc2cc(C)nc(N(C)C)n2)o1	-0.8
CCCC(=O)Nc1cccc(NC(=S)NC(=O)C(C)Oc2ccc(Cl)cc2Cl)c1 (configuration not stated)	17.6
COc1ccc(CCNC(=O)CSc2n[nH]c(C)c2[N+](=O)[O-])cc1OC	4.6
Cc1cccc(NC(=S)NCCN(C2CCCCC2)C2CCCC2)c1	15.0
Cc1cc(NC(=O)CSc2nncn2-c2ccccc2)no1	-8.2
c1ccc(-c2noc(CN3CCN(c4cnccn4)CC3)n2)cc1	3.6
COc1ccc2c(CC(=O)NCc3cccs3)coc2c1	21.2
COC(=O)c1ccc(CSc2nncn2N)cc1	5.3
O=C(CNC(=O)c1ccc(Br)cc1)N/N=C/c1ccc[nH]1	4.1
COc1ccc(C(=O)NCCc2cn3ccccc3n2)cc1	14.5
CC(Oc1ccccc1)C(=O)N=Nc1c(O)[nH]c2ccc([N+](=O)[O-])cc12 (configuration not stated)	11.0
Cc1ccc(O)c(C2=Nc3ccccc3N=C(c3ccc([N+](=O)[O-])cc3)C2)c1	-10.6
NC(=O)CSc1nc2ccccc2n1Cc1ccccc1	20.6
Cc1cccc(-c2nsc(SCC(=O)c3ccc(Cl)cc3)n2)c1	7.7
CC(NC(=O)Cn1nnc(-c2ccncc2)n1)c1ccccc1 (configuration not stated)	24.2
N#CCCn1cc(C(=O)O)c(-c2cccs2)n1	10.4
COc1ccc(-c2c[n+]3c(n2-c2ccccc2)SCC3)cc1	34.0
Oc1c(Br)cc(/C=N/NC(=S)NCC2CCCO2)cc1Br (configuration not stated)	17.4
O=C(O)c1ccc(/C=N/NC(=O)c2cc(-c3cccs3)nc3ccccc23)cc1	17.0
Cc1ccc(N=C(N)N=C(N)N)cc1	4.7

By substructure: those above containing bromine
Structure	Calb biofilm kill
O=C(/C=C/c1cccc(Br)c1)NCc1ccncc1	17.5
O=C(CNC(=O)c1ccc(Br)cc1)N/N=C/c1ccc[nH]1	4.1
Oc1c(Br)cc(/C=N/NC(=S)NCC2CCCO2)cc1Br (configuration not stated)	17.4

The results go on:
Structure	Calb biofilm kill
CCCCNC(=O)C1CCC(CNc2nc(=S)[nH]c3ccccc23)CC1 (configuration not stated)	20.0
COc1ccc(/C(N)=N/OC(=O)c2ccco2)cc1OC	7.5
COc1ccc(C2/C=C\CN(C(=O)Nc3ccc(C(F)(F)F)cc3)CC(=O)N2Cc2ccc(F)cc2)cc1 (configuration not stated)	16.4
Cn1ccnc1SCCNC(=O)CCc1nnc(CCCCc2ccccc2)o1	11.5
COc1ccc(-c2nc(CN3CCCCC3c3nccn3C)c(C)o2)c(C)c1C (configuration not stated)	9.6
O=C(NCCCn1ccnc1)c1ccc(S(=O)(=O)N2CCOCC2)cc1	16.1
Cn1ncc2c(Nc3cccc(Cl)c3)nc(Nc3cccc(Cl)c3)nc21	24.9
Cc1cccc2cc(CN(C(=O)c3cccc([N+](=O)[O-])c3)C(C)C)c(=O)[nH]c12	16.9
N#CCOC(=O)/C=C/c1ccc2c(c1)OCO2	7.0
O=C1CC(/C=C/c2cccnc2)=Nc2ccccc2N1	9.5
Cc1cc(C)c(NC(=O)/C=C\C(=O)O)c(Cl)c1	10.1
O=C(Nc1cc(Cl)cc(Cl)c1)N1CCCC1	25.4
Cc1cccc(C(=O)Oc2ccc(/C=N/NC(=O)c3ccncc3)cc2)c1	13.2
CC(C)CSC1=NSC2=NC(=O)/C(=C\c3ccccc3)C(=N)N12	26.0
CCCCC(CC)CNC(=O)CC1Nc2c3ccccc3nc(=S)n2C1=O (configuration not stated)	10.7
CCCn1c(C)cc(C(=O)Cn2nnc3ccccc3c2=O)c1C	-0.3
COc1cccc(SCC2(O)CCN(C(=O)c3ccc(Cl)cc3)CC2)c1	15.7
CCN(CC)CCNC(=O)c1ccc(NS(=O)(=O)c2ccc3c(c2)OCCO3)cc1	34.8
CS(=O)(=O)c1ccc(SCC(=O)NC2CCS(=O)(=O)C2)c([N+](=O)[O-])c1 (configuration not stated)	29.5
Cc1ccc(OCC(=O)N2CCN(S(=O)(=O)c3ccccc3)CC2)c([N+](=O)[O-])n1	-2.7
C=C(C)CNC(=S)Nc1cccc(N)n1	25.8
CCN(CC)C(=O)c1c(-c2ccccc2)oc2ccc(OC)cc12	8.9
Cc1ccc(/C=N/NC(=O)C[n+]2ccccc2)s1	16.3
CCOc1ccccc1-n1nnnc1SCC(=O)NCc1ccco1	20.5
CS(=O)(=O)N(CC(=O)NC1CC2CCC1C2)c1ccc(Oc2ccccc2)cc1 (configuration not stated)	9.2
N#Cc1ccc(C23CC4(C2)[C@H](CN(Cc2ccc(C(F)(F)F)cc2)[C@@H]4c2ccccc2)C3c2ccc(C(F)(F)F)cc2)cc1 (some centres not stated)	18.6
CCCn1c(SCC(=O)Nc2ccc(S(=O)(=O)N(C)C)cc2)n[nH]c1=O	-9.4
O=C(c1cc(COc2ccc(F)cc2Cl)on1)N1CCc2ccccc2C1	20.7
CCOc1ccccc1NC(=O)COC(=O)CNS(=O)(=O)c1ccc(C)cc1	-12.9
COc1ccccc1NC(=O)c1ccc(NC(=O)CSc2ncccn2)cc1	9.7
COc1ccc2c(c1OC)C(=O)N(c1ccc(O)cc1)C2=O	16.5
O=Cc1ccc(OCc2cccc(C(F)(F)F)c2)cc1O	-4.5
Cc1ccc(SCCNC(=O)c2ccc(CN3CCOCC3)cc2)cc1	7.8
CN(C)CC(C)(C)CNC(=S)Nc1cc(S(=O)(=O)N2CCOCC2)ccc1Cl	-3.7
COc1ccc(/C=C(\C#N)C(=O)NCC(c2ccc(F)cc2)N2CCOCC2)cc1 (configuration not stated)	31.2
CCOc1ccc(C(=O)NC(=S)NCc2cccnc2)cc1[N+](=O)[O-]	14.0
Cc1ccnc(NC(=O)c2ccc3c(c2)S(=O)(=O)c2ccccc2C3=O)c1	15.6
Cn1cc(/C=N\O)nc2c(=O)n(-c3ccccc3)c(=O)nc1-2	6.6
O=C(N/C(=C/c1cn(-c2ccccc2)nc1-c1ccccc1)C(=O)N1CCOCC1)c1ccccc1	21.6
CCC(C)(C)C(=O)Nc1cccc(Cl)c1C	20.4
CCOC(=O)Cn1nc(C)c(NC(=O)COc2ccc(F)cc2F)c1C	12.1
CCn1c2ccccc2c2nc3cc(C(=O)O)ccc3nc21	13.1
CCN(c1ccc(NC(=O)CCNC(=O)c2ccco2)cc1)C(C)C	7.4
COc1ccc(-n2c(SCC(=O)N3CCCC3)nc3ccccc3c2=O)cc1	5.2
CCc1cc2c(=O)c(-c3nc4ccccc4[nH]3)coc2c(CN2CCCCC2C)c1O (configuration not stated)	8.6
Cc1cc(CNC(=O)C(C)n2cc([N+](=O)[O-])cn2)c2ccccc2n1 (configuration not stated)	-2.5
CN1CCN(c2ccc(S(=O)(=O)N3CCCCC3)cc2NC(=O)c2ccc(C#N)cc2)CC1	4.0
OC(COc1cccc2ccccc12)CN1CCN(c2ccccc2Cl)CC1 (configuration not stated)	17.1
O=C(CN1C(=O)c2ccccc2C1=O)Nc1nccs1	21.8
CCOC(=O)c1ccc(NC(=S)N2CCCC2)cc1	-10.9

Other records:
Structure	Calb biofilm kill
NC(=O)C1CCN(C(=O)CSc2ccsc2[N+](=O)[O-])CC1	24.1
COc1ccc(NC(=O)Cc2c(Cl)cccc2Cl)cn1	9.6
Cc1ccc(C)n1Cc1ccccc1Cl	10.2
Cc1cc(C)cc(NC(=O)C2(c3cccs3)CCOCC2)c1	10.9
S=C(NCCCN1CCOCC1)N1CCN(c2nc(-c3ccccc3)cs2)CC1	23.8
CCC(=O)Nc1nonc1-c1nc2ccccc2n1Cc1cccc2ccccc12	6.3
CN1CCN(c2ccc(CNC(=O)c3cc4ccccc4o3)cc2)CC1	14.3
COc1ccc(NC(=O)COc2ccc(C)cc2)c([N+](=O)[O-])c1	5.0
C=CCn1c(=S)sc2c(=O)[nH]c(C)nc21	18.3
CC(C)(C)NC(=O)Cn1c(=O)n(CC(=O)NC(C)(C)C)c2ccccc21	13.6
CC(C)Nc1c([N+](=O)[O-])c(=O)oc2ccccc12	17.2
CC(c1ccccc1)C(Cc1nc2ccccc2[nH]1)c1nc2ccccc2[nH]1 (configuration not stated)	5.6
O=C1OC(c2ccccc2)=C/C1=C/N1CCOCC1	8.0
COc1ccc(Cl)cc1-c1nc(SCC(=O)NC(C)C)n[nH]1	-16.0
CCOc1ccc(-n2c(SCc3cc(=O)oc4cc(C)c(C(C)C)cc34)nnc2-c2cccnc2)cc1	14.3
C[C@@H]1C(=O)O[C@H]2[C@H]1CC[C@@]1(C)C(=O)C=C[C@@](C)(O)[C@H]21	11.8
CCc1ccc(OC)c(-c2csc(N)n2)c1	8.1
Cc1ccc(-c2[nH]ncc2/C=N/n2c(COc3ccccc3)nc3ccccc3c2=O)cc1	21.8
CCOc1cc(C(=O)Nc2cc(C)ccc2OC)ccc1OCC(=O)N1CCCCC1	19.6
COc1ccc2c(c1)CCc1cn3ncc(C#N)c3nc1-2	-3.2
Nc1nc(SCC(=O)Nc2ccc([N+](=O)[O-])cc2Br)n[nH]1	11.2
Cc1ccc(NC2=C(NCCO)C(=O)c3ccccc3C2=O)cc1	6.3
O=C(c1cnn(C(=O)c2ccc(O)cc2)c1)c1ccccc1O	13.2
COc1ccc(/C=N/NC(=S)Nc2cc(S(=O)(=O)N3CCOCC3)ccc2N2CCOCC2)cc1O	16.4
FC(F)(F)c1nc(SCc2ccc(Cl)cc2Cl)n[nH]1	12.5
Cn1c(-c2ccc(F)cc2)cnc1SCC(=O)NNC(=O)Cc1ccccc1	1.2

Some of the compounds tested (hit frequency here may not be typical).
